Screening data from PubChem BioAssay.
PMP22 txn prim = modulates PMP22 transcription in S16 Schwann cells | 43,000 compounds, 2% hits | S16 Pmp22-F2sN Schwann cells (luciferase reporters placed in the Pmp22 gene), FLuc/NLuc coincidence luminescence, 24 h | Potency, µM (highest dose often 57.5 µM), for inactives: at the highest dose activity change, negative = inhibition, actives largely listed as inhibitors; active = clear falling dose curves in both reporters; inconclusive = both reporters move, but less clearly or upward; inactive = either reporter flat; the % is the NLuc reporter signal; note: % is set by controls: 0 for no effect and ±100 for the full control effect; some results filed as inactive show a strong effect at the top dose
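S16(c9) Schwann cells with FLuc/NLuc coincidence reporter in the Pmp22 3' UTR; compounds pin-transferred, 24 h at 37C. Dual-luciferase read: FLuc first, then NLuc after Stop&Glo, each 10 min at room temperature.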
HTT prom inh = inhibitors of huntingtin promoter activity. Potency, µM (series often up to 57.5 µM), for inactives: top-dose activity change, negative = inhibition, most hits filed as inhibitors. 48,000 compounds, 0.93% hits. HEK293 HTT promoter firefly luciferase reporter (activity 0% = vehicle and -100% = no light), 24 h; active = well fitted inhibition curve with a large enough effect; inconclusive = small, poorly fitted or top-dose-only effect; inactive = no such curve, though single readings can be large or run the other way; note: nearly all actives have a fitted effect of over 50% in size
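Luminescence was read after Dual-Glo reagent and a 10 min room-temperature incubation. Values were normalized to vehicle (0% activity) and zero RLU (-100% activity). Reporter HEK293 cells had been exposed to compounds (up to 57.5 uM final) for 24 h.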
* = called active by the depositor; [ ] = remark or other dose. Potency is the fitted concentration of half-maximal effect.

CCOc1ccc(Br)cc1C1C(C(=O)OC)=C(C)NC2=C1C(=O)c1ccccc12 (centres undefined) was read as PMP22 txn prim -1.0% and HTT prom inh -19.7%.
Screening CCCC(=O)Nc1cccc(-c2cn3cccnc3n2)c1 returned PMP22 txn prim -2.8% and HTT prom inh 31.4%[activator].
`COc1cccc(C2C(C(=O)Nc3ccccc3OC)=C(C)Nc3nc(-c4ccco4)nn32)c1` (centres undefined) gave PMP22 txn prim -11.2% and HTT prom inh -18.8%.
`Cc1ccc(NC(=O)C(=O)NCC(c2cccnc2)N2CCOCC2)cc1Cl` (centres undefined) gave PMP22 txn prim -74.4% and HTT prom inh -30.8%.
Screening COc1ccc(NC(=O)c2c(N)c(C(=O)c3ccc(OC)cc3)n3ccccc23)cc1 returned PMP22 txn prim 22.6% and HTT prom inh -22.6%.
`COc1ccccc1NC(=O)C1=C(C)Nc2nc(-c3ccco3)nn2C1c1ccccc1` (centres undefined) gave PMP22 txn prim 22.5% and HTT prom inh -17.8%.
`CCOc1ccc(-n2c(Cc3ccccc3)nnc2SCc2nc(-c3cccs3)no2)cc1` gave PMP22 txn prim inconclusive and HTT prom inh -16.4%.
Screening COc1ccc(OC)c2sc(N3CCN(C(=O)C4CC4)CC3)nc12 returned PMP22 txn prim 14.3% and HTT prom inh 0.0%.
For CCN(CC)S(=O)(=O)c1ccc2c(c1)c(=O)c(C(=O)NCCc1ccccc1)cn2C the results were PMP22 txn prim inconclusive and HTT prom inh -1.5%.
CCOc1ccc(CN2CCc3nc(N4CCN(c5ccccc5OC)CC4)ncc3C2)cc1OC was read as PMP22 txn prim 17µM* and HTT prom inh inconclusive.
CCc1cccc(NC(=O)CN2c3ccccc3S(=O)(=O)c3ccccc32)c1 was read as PMP22 txn prim 2.3% and HTT prom inh -23.8%.
For Cc1nc2nc(SCC(=O)NC3CCC(C)CC3)nn2c(C)c1Cc1ccccc1 (centres undefined) the results were PMP22 txn prim -1.9% and HTT prom inh -16.6%.
For O=C(NC1CCCCC1)c1ccc(CSc2nc3cccnc3n2Cc2cccc(F)c2)cc1 the results were PMP22 txn prim inconclusive and HTT prom inh inconclusive.
Cc1ccccc1C(=O)Nc1c(C)nc(Nc2ccccc2)nc1Nc1ccccc1 was read as PMP22 txn prim inconclusive and HTT prom inh inconclusive.
`COc1cccc(NC(=O)N2CCC(n3c(C)nc4cccnc43)CC2)c1` gave PMP22 txn prim -0.2% and HTT prom inh -14.8%.
`CCCCN(CC)CCCNC(=O)Cn1ncc2c3ccccc3n(C)c2c1=O` gave PMP22 txn prim -28.1% and HTT prom inh 10.8%.
For CC1=C(c2ccc(Cl)cc2)S(=O)(=O)N=C1N1CCN(c2cccc(C(F)(F)F)c2)CC1 the results were PMP22 txn prim inconclusive and HTT prom inh inconclusive.
For Cc1ccc(NC(=O)c2nc(S(=O)(=O)Cc3cccc(C)c3)ncc2Cl)cc1 the results were PMP22 txn prim 4.22µM* and HTT prom inh inconclusive.
For Cn1c(=O)c2cc(C(=O)NCCCN3CCN(c4ccccc4F)CC3)sc2c2ccccc21 the results were PMP22 txn prim inconclusive and HTT prom inh -4.6%.
Screening CCOc1ccccc1NC(=O)CSc1ccc2nnc(CCNS(=O)(=O)c3ccccc3)n2n1 returned PMP22 txn prim -17.1% and HTT prom inh -1.2%.
For Cc1cc(Br)ccc1NC(=O)c1cc2c(=O)n(C)c3cc(Cl)ccc3c2s1 the results were PMP22 txn prim -31.4% and HTT prom inh -5.0%.
`CC(C)(C)CC(=O)NC1CC(=O)N(c2ccc3c(c2)OCCO3)C1` (centres undefined) gave PMP22 txn prim -4.2% and HTT prom inh -22.4%.
For O=C(CCCn1c(=O)c2cccn2c2ccccc21)NCc1ccccc1Br the results were PMP22 txn prim inconclusive and HTT prom inh -0.4%.
Screening Cc1ccc(NC(=O)CCC(=O)N2Cc3ccccc3Oc3ncccc32)cc1F returned PMP22 txn prim 6.4% and HTT prom inh -14.0%.
COc1ccccc1-c1cc(C(=O)N2CCCCC2C)no1 (centres undefined) was read as PMP22 txn prim inconclusive and HTT prom inh 45.9%[activator].
CCOc1cc2sc(N3CCC(C(=O)Nc4cc(C)cc(C)c4)CC3)nc2cc1Br was read as PMP22 txn prim -18.1% and HTT prom inh 65.0%[activator].
For CCc1ccc(CNC(=O)C2CCN(c3nnc(-n4c(C)ccc4C)s3)CC2)cc1 the results were PMP22 txn prim inconclusive and HTT prom inh inconclusive.
`Cc1ccc(NS(=O)(=O)c2ccc3[nH]c4c(c3c2)CCCC4)c(C)c1` gave PMP22 txn prim inconclusive and HTT prom inh -20.9%.
CC(C)(C)C1CCc2nc(NC(=O)COc3ccc(F)cc3)sc2C1 (centres undefined) was read as PMP22 txn prim 1.4% and HTT prom inh -26.3%.
For CC(C)(C)c1ccc(C(=O)N2CCN(CCc3ccccn3)CC2)cc1 the results were PMP22 txn prim -11.5% and HTT prom inh -19.9%[11.5 µM].
COc1ccc(N2CC(NC(=O)c3cccs3)CC2=O)cc1OC (centres undefined) was read as PMP22 txn prim -4.9% and HTT prom inh -2.9%.
`COc1ccccc1N1CCN(C(=O)c2cc3c(=O)oc4ccccc4c3s2)CC1` gave PMP22 txn prim -0.6% and HTT prom inh 0.3%.
Screening COc1cccc(C(=O)Nc2ccc(-c3nc4ccccc4s3)cc2Cl)c1 returned PMP22 txn prim inconclusive and HTT prom inh -12.3%.
Screening O=c1c2ccccc2nc(N2CCN(c3cccc(Cl)c3)CC2)n1-c1ccccc1 returned PMP22 txn prim inconclusive and HTT prom inh inconclusive.
COc1cccc(CNC(=O)CCn2nc(C)c3c(C)n(-c4ccccc4)nc3c2=O)c1 was read as PMP22 txn prim -4.2% and HTT prom inh -8.7%.
Cc1cccc(OCc2nnc(-c3ccccc3)o2)c1 was read as PMP22 txn prim -2.7% and HTT prom inh 50.6%[activator].
CCN(C(=O)CSc1nc2ccccc2n1Cc1ccccc1C#N)c1ccccc1 was read as PMP22 txn prim inconclusive and HTT prom inh -11.5%.
`CCOC(=O)N1CCN(C(=O)CN(c2cc(C)ccc2OC)S(=O)(=O)c2ccc(C)cc2)CC1` gave PMP22 txn prim 0.9% and HTT prom inh -16.1%.
Screening Cc1nn(C)c2c1c(C(F)(F)F)cc(=O)n2C(C)C(=O)NCCc1ccccc1 (centres undefined) returned PMP22 txn prim -12.5% and HTT prom inh -10.8%.
CCN(CCCNC(=O)c1nn(-c2ccc(C)cc2)c(=O)c2c1c1ccccc1n2C)c1ccccc1 was read as PMP22 txn prim inconclusive and HTT prom inh -8.2%.
For COc1cccc(C(=O)Nc2ccccc2C(=O)OCc2cc(=O)n3c4c(sc3n2)CCCC4)c1 the results were PMP22 txn prim -14.1% and HTT prom inh -25.6%.
For Cc1ccc(C)c(N2CCN(C(=O)c3ccc(-c4nc(COc5ccccc5)c(C)o4)cc3)CC2)c1 the results were PMP22 txn prim inconclusive and HTT prom inh inconclusive.
C[C@H](NC(=O)C(C#N)=Cc1cccc(Br)n1)c1ccccc1 was read as HTT prom inh inconclusive.
CCOCCCNC(=O)C(c1ccc(Cl)cc1)N(Cc1ccc2c(c1)OCO2)C(=O)c1ccc(NC(C)=O)cc1 (centres undefined) was read as PMP22 txn prim -4.3% and HTT prom inh -15.5%.
CCC(=O)N1CCc2cc(Br)cc(S(=O)(=O)Nc3ccccc3C(=O)OC)c21 was read as PMP22 txn prim -4.2% and HTT prom inh -8.9%.
`CCC(C)S(=O)(=O)c1oc(-c2cccs2)nc1S(=O)(=O)c1ccccc1` (centres undefined) gave PMP22 txn prim 1.39µM* and HTT prom inh inconclusive.
For Cc1cccc(C)c1-n1ncc(C(=O)Nc2ccc3c(c2)OCO3)c1C1CCN(C(=O)OC(C)(C)C)CC1 the results were PMP22 txn prim -14.4% and HTT prom inh -11.3%.
For Cc1ccc(S(=O)(=O)NCC(c2ccc(N(C)C)cc2)N2CCCC2)cc1 (centres undefined) the results were PMP22 txn prim 8.5% and HTT prom inh -8.2%.
Screening CCCS(=O)(=O)Nc1ccc(F)c(C(=O)c2c[nH]c3ncc(-c4ccc(Cl)cc4)cc23)c1F returned HTT prom inh inconclusive.
For COc1ccc(-n2nnc(-c3nc(-c4ccccc4C)no3)c2N)cc1Cl the results were PMP22 txn prim -0.5% and HTT prom inh -5.6%.
`Cc1ccnc(NS(=O)(=O)c2ccc(NC(=O)c3nc(SC(C)C)ncc3Cl)cc2)n1` gave PMP22 txn prim 11.9% and HTT prom inh -18.6%.
`Cc1cccc(NC(=O)Cn2ncc3c4ccccc4n(Cc4ccccc4)c3c2=O)c1C` gave PMP22 txn prim -7.3% and HTT prom inh -3.0%.
CCC(Sc1nnc(C)n2c1cc1occc12)C(=O)Nc1ccccc1OC (centres undefined) was read as PMP22 txn prim inconclusive and HTT prom inh -6.0%.
`CCOC(=O)C1CCN(CCC(=O)Nc2ccc(OC)cc2)CC1` gave PMP22 txn prim 9.0% and HTT prom inh -16.9%.
Cc1ccc2nc(-c3c[nH]c4ccccc34)c(Nc3ccc(F)cc3)n2c1 was read as PMP22 txn prim -22.3% and HTT prom inh 8.8%.
`O=S(=O)(c1ccc2[nH]c3c(c2c1)CCCCC3)N1CCN(c2ccccc2)CC1` gave PMP22 txn prim -6.7% and HTT prom inh inconclusive.
For Cc1ccccc1CSc1nc2c(sc3ccccc32)c(=O)n1CCCC(=O)NCCCOC(C)C the results were PMP22 txn prim -17.9% and HTT prom inh -13.5%.
Cc1ccc(C(=O)c2oc3ccccc3c2NC(=O)c2nc(S(C)(=O)=O)ncc2Cl)cc1F was read as PMP22 txn prim 7.61µM* and HTT prom inh -7.0%.
For Cc1ccc(C)c(N2CCN(C(=O)c3c(C)oc4nc(C)nc(N5CCOCC5)c34)CC2)c1 the results were PMP22 txn prim -11.1% and HTT prom inh -17.3%.
`C[C@@H]1[C@H](C)CC[C@]2(C(=O)O)CC[C@]3(C)C(=CC[C@@H]4[C@@]5(C)CC[C@H](O)C(C)(C)[C@H]5CC[C@]43C)[C@@H]12` gave HTT prom inh -12.4%[116 µM].
Screening Cc1ccc(-n2nc(C(=O)N3CCC(C)CC3)c(=O)n(C)c2=O)cc1 returned PMP22 txn prim 0.6% and HTT prom inh 4.9%.
For COc1ccc2nc3oc(C(=O)Nc4cccc(C(F)(F)F)c4)cc3cc2c1 the results were PMP22 txn prim -3.3% and HTT prom inh -2.3%.
CC1CCCCN1CCCNC(=O)c1sc2ncccc2c1-n1cccc1 (centres undefined) was read as PMP22 txn prim inconclusive and HTT prom inh -9.6%.
Cc1ccccc1OCCSc1nc2ccc(NC(=O)c3cccc(F)c3)cc2s1 was read as PMP22 txn prim inconclusive and HTT prom inh inconclusive.
`CCc1ccccc1NC(=O)Nc1cc(C(=O)NCc2ccc(C)cc2)ccc1N1CCCC1` gave PMP22 txn prim inconclusive and HTT prom inh 3.5%.
`Cc1ccccc1C(=O)NNc1ncnc2c1cnn2-c1cccc(Cl)c1` gave PMP22 txn prim 3.0% and HTT prom inh -28.8%.
For COc1ccccc1Cn1cc(C(=O)c2ccc(C)cc2)c(=O)c2cc(C)ccc21 the results were PMP22 txn prim inconclusive and HTT prom inh -5.0%.
`CCOc1ccc(Cn2c(=O)sc3ccccc32)cc1` gave PMP22 txn prim 19.9% and HTT prom inh -14.5%.
For CCCn1c(/C=C/c2ccccc2)nc2ccccc21 the results were PMP22 txn prim -11.2% and HTT prom inh 64.3%[activator].
`Cn1nc(C(=O)NCc2ccccc2)c2c1-c1ccccc1S(=O)(=O)C2` gave PMP22 txn prim 0.5% and HTT prom inh -17.1%.
Screening O=C(O)c1cc(-c2ccccc2)nc2ccccc12 returned HTT prom inh 29.4%.
`C[C@H]1O[C@@H](O[C@H]2CC[C@@]3(C)[C@H](CC[C@@H]4[C@@H]3C[C@@H](O)[C@]3(C)[C@@H](C5=CC(=O)OC5)CC[C@]43O)C2)C[C@H](O)[C@@H]1O[C@H]1C[C@H](O)[C@H](O[C@H]2C[C@H](O)[C@H](O[C@@H]3O[C@H](CO)[C@@H](O)[C@H](O)[C@H]3O)[C@@H](C)O2)[C@@H](C)O1` gave HTT prom inh -39.6%.
For O=C(NCc1ccc(F)cc1Cl)c1cc(=O)[nH]c2ccc(S(=O)(=O)N3CCCCC3)cc12 the results were PMP22 txn prim -2.3% and HTT prom inh -14.1%.
